# Screening results from PubChem BioAssay.
# A1 inh – inhibitors of the anti-apoptotic protein A1, read as caspase activation. MEF A1-2A-BIM cells, Caspase-Glo 3/7 luminescence, 3 h; percent of clofoctol response, vehicle zero. caspase activation, % (test concentration not listed). 330,000 tested, 0.066% active;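 active = over half of replicate activation scores above 10%, or exactly half above 10 with the replicate mean above 10; inconclusive = replicate mean below 10 yet half the replicates above 10; inactive = over half of replicates below 10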;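 note: wells of about 30 µL received 50 nL stock; many hits fall short of the cut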
# Beta2AR agonist – agonists of human beta-2 adrenergic receptor inducing internalization; 340,000 tested, 0.43% active; AID 504454; P07550; response, % (test concentration not listed); Am2.2-beta2AR cells, FAP receptor internalization, flow cytometry; reference of the scale not given here;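 active = response above a set limit, near 3 SD of response in nonfluorescent compounds, cut at about 42% in these data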;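 note: stock transfer was 100 nL into about 11 µL; a reference agonist was the positive control; negative values mostly stem from fluorescent compounds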
# Target sequence (P07550 whole entry, looked up): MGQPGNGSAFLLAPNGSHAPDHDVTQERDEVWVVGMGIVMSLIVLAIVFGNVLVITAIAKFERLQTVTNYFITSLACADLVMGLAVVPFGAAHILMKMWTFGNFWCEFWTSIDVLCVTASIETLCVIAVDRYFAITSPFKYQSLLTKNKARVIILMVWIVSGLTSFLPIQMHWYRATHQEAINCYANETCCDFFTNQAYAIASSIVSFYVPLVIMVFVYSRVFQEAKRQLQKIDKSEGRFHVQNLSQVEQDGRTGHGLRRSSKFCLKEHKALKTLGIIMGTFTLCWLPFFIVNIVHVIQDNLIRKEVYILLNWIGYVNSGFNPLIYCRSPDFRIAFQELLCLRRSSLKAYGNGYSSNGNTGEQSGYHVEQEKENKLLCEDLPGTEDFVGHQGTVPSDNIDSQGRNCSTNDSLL
# HNF4A DNA FP – change in binding of human HNF4 alpha to DNA; activity change, % at 10 µM; 360,000 tested, 0.3% active; AID 1224865; HNF4a-FITC DNA binding, fluorescence polarization, 1 h; P41235; in the data active = activity change above about 30%, passing the limit was not always enough;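 note: controls were the assay level and a saturating level of protein; the project sought stronger binding though the title names inhibitors; some compounds called inactive have numbers as strong as hits; positive values seem to mean higher polarization but the record does not say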
# LANA-H2B inh – blocks KSHV LANA binding to histone H2A/H2B; cell-free LANA-H2A/H2B peptide, fluorescence polarization; 320,000 tested, 0.6% active; inhibition, % (no concentration beside the values); AID 2629; Q9QR71; in the data active = inhibition mostly above about 10%, no sharp cut-off; inactive = mostly below about 6.7%;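 note: stock transfer was 7.5 nL into about 10 µL; 0% = median of vehicle wells and 100% = median of positive control wells; one replicate is shown; the record names a cut of 25% in any replicate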
# UCH37 DUB inh – blocks the human deubiquitinase UCH37. 330,000 tested, 0.33% active. Q9Y5K5. inhibition, % (test concentration not listed). purified proteasome/UCH37, Ub-AMC cleavage fluorescence;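 active = mean of two replicates above 20%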;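 note: 0% = compound-free wells with enzyme and 100% = wells lacking proteasome; stock transfer was 100 nL into about 20 µL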
# Target sequence (Q9Y5K5 whole entry, looked up): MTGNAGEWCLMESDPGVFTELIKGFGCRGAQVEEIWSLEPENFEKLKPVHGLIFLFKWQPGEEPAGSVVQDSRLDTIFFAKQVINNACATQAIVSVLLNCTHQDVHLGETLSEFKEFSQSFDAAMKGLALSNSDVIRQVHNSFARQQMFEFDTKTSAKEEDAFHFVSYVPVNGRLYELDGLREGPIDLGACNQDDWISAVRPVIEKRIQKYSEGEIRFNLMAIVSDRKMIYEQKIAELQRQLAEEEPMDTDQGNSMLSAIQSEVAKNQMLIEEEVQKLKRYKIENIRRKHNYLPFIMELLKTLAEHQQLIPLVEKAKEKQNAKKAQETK
#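 System: Proteasome-associated human UCH37 deubiquitinase; Input: 0.15 nM proteasome in added enzyme buffer; Also added: Ub-AMC substrate from 1 µM stock; Incubation: 30 min compound-proteasome preincubation then 25 min substrate reaction, room temperature; Detection: fluorescence, ex 355 nm, em 460 nm; Read-out: % inhibition of Ub-AMC cleavage fluorescence; Benchmarks: no-proteasome and no-compound wells.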
# Ecoli growth – E. coli growth inhibition; Escherichia coli growth, OD600, 23 h; active compounds read low; OD600 absorbance (test concentration not listed); 330,000 tested, 0.21% active; AID 1053175;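 active = OD600 absorbance below the run mean of sample wells minus 3.6 SD, in any replicate, cut at about 0.56 in these data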;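 note: stock transfer was 300 nL into about 60 µL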
# Vif A3G – inhibitors of Vif binding to APOBEC3G peptide, primary screen, biochemical, TR-FRET, GST-Vif 1-94, biotin-A3G peptide, dose response retest (AID 1117319) | TR-FRET GST-Vif / biotin-A3G peptide binding; higher % means a stronger effect; test concentration not given here; strong numbers were not always called active | 260,000 tested, 0.57% active | one-dose inhibition, %; IC50 in µM for titrated hits;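 active = above the screen mean plus three standard deviations and confirmed in dose response; inconclusive = results disagree or hit not tested in dose response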;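 note: Vif residues 1-94 fused to GST binding biotinylated APOBEC3G peptide 110-148; 0% = full assay without inhibitor and 100% = GST in place of GST-Vif; retest series ran down from 100 µM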
# Active calls of the source: *; ? = inconclusive; . = no result given.
# Every second line gives: A1 inh | Beta2AR agonist | HNF4A DNA FP | LANA-H2B inh | UCH37 DUB inh | Ecoli growth | Vif A3G
[1] O=C(Nc1ccn(CCCN2CCN(c3ccccn3)CC2)c(=O)n1)OCc1ccccc1
→ . | -7.9 | -5.8 | . | . | . | -3.8%
[2] COC(=O)c1ccccc1S(=O)(=O)N1CCC(NC(=O)c2ccccc2)CC1
→ 0.7 | 4.4 | 0.2 | 3.8 | 0.2 | 0.666 | 8.1%
[3] CC(C)(C)c1ccc(S(=O)(=O)N2CCN(CC(O)COCC3CCCO3)CC2)cc1 (stereo not given)
→ -0.1 | -2.9 | 0.9 | 0.4 | -1.3 | 0.705 | .
[4] O=[N+]([O-])c1ccc(N2CCCC2)cc1NCc1ccccc1
→ 0.1 | -0.7 | -4.4 | -4.0 | 4.3 | 0.688 | -3.7%
[5] COP(=O)(CC(=O)c1ccccc1)CC(=O)c1ccccc1
→ 0.7 | 13.8 | -4.1 | 4.6 | 2.1 | 0.66 | 0.0%
[6] COc1ccc(S(=O)(=O)N(C)C[C@H]2Oc3ccc(NS(=O)(=O)c4ccc(F)cc4)cc3C(=O)N([C@H](C)CO)C[C@@H]2C)cc1
→ 1.7 | -5.5 | 1.0 | 3.2 | 1.9 | . | .
[7] CC(C)(CCl)C(=O)Nc1ccnc(-c2ccncc2)n1
→ 1.0 | -9.3 | 3.6 | 1.6 | 1.9 | 0.686 | -7.3%
[8] O=C(CCCCn1c(=O)[nH]c2ccccc2c1=O)NC1CCN(Cc2ccccc2)CC1
→ 0.8 | 34.5 | -0.3 | -4.0 | 1.3 | 0.705 | 3.2%
[9] OCC1(CC2CCCCO2)CCN(C/C=C/c2ccccc2)CC1 (stereo not given)
→ 0.1 | -16.3 | -0.6 | 2.0 | -1.4 | 0.663 | .
[10] O=C(/C=C/c1ccco1)NCc1ccccn1
→ -0.8 | -2.0 | -3.1 | -5.9 | 4.4 | 0.75 | 29.6%
[11] CC1Oc2ccccc2N(CC(=O)N(Cc2ccccc2)Cc2ccccn2)C1=O (stereo not given)
→ 1.0 | 6.4 | 1.9 | -3.0 | 5.0 | 0.726 | -0.7%
[12] COCc1cc(=O)[nH]c(Sc2c(-c3ccccc3)c3ccc(Cl)cc3[nH]c2=O)n1
→ 0.3 | -6.4 | 3.0 | -5.2 | 1.1 | 0.699 | -17.0%
[13] COc1cc(S(C)=O)ccc1-c1nc2ncccc2[nH]1 (stereo not given)
→ 0.8 | -11.1 | -0.1 | 12.8 | -29.5 | 0.652 | .
[14] COc1ccc(N2C(=O)CSC23CCCCC3)cc1
→ -0.6 | -0.7 | -5.6 | 0.3 | 0.6 | 0.707 | ?
[15] Cc1sc(N)nc1-c1c(C)n(C)c2ccccc12
→ -1.1 | 0.1 | 5.9 | 0.4 | 3.9 | 0.659 | -7.6%

# Sorted by length of the SMILES (rising): some entries from above
# Every second line gives: A1 inh | Beta2AR agonist | HNF4A DNA FP | LANA-H2B inh | UCH37 DUB inh | Ecoli growth | Vif A3G
[10] O=C(/C=C/c1ccco1)NCc1ccccn1
→ -0.8 | -2.0 | -3.1 | -5.9 | 4.4 | 0.75 | 29.6%
[14] COc1ccc(N2C(=O)CSC23CCCCC3)cc1
→ -0.6 | -0.7 | -5.6 | 0.3 | 0.6 | 0.707 | ?
[15] Cc1sc(N)nc1-c1c(C)n(C)c2ccccc12
→ -1.1 | 0.1 | 5.9 | 0.4 | 3.9 | 0.659 | -7.6%
[7] CC(C)(CCl)C(=O)Nc1ccnc(-c2ccncc2)n1
→ 1.0 | -9.3 | 3.6 | 1.6 | 1.9 | 0.686 | -7.3%
[9] OCC1(CC2CCCCO2)CCN(C/C=C/c2ccccc2)CC1 (stereo not given)
→ 0.1 | -16.3 | -0.6 | 2.0 | -1.4 | 0.663 | .
[4] O=[N+]([O-])c1ccc(N2CCCC2)cc1NCc1ccccc1
→ 0.1 | -0.7 | -4.4 | -4.0 | 4.3 | 0.688 | -3.7%
[11] CC1Oc2ccccc2N(CC(=O)N(Cc2ccccc2)Cc2ccccn2)C1=O (stereo not given)
→ 1.0 | 6.4 | 1.9 | -3.0 | 5.0 | 0.726 | -0.7%
[2] COC(=O)c1ccccc1S(=O)(=O)N1CCC(NC(=O)c2ccccc2)CC1
→ 0.7 | 4.4 | 0.2 | 3.8 | 0.2 | 0.666 | 8.1%
[1] O=C(Nc1ccn(CCCN2CCN(c3ccccn3)CC2)c(=O)n1)OCc1ccccc1
→ . | -7.9 | -5.8 | . | . | . | -3.8%
[3] CC(C)(C)c1ccc(S(=O)(=O)N2CCN(CC(O)COCC3CCCO3)CC2)cc1 (stereo not given)
→ -0.1 | -2.9 | 0.9 | 0.4 | -1.3 | 0.705 | .
[12] COCc1cc(=O)[nH]c(Sc2c(-c3ccccc3)c3ccc(Cl)cc3[nH]c2=O)n1
→ 0.3 | -6.4 | 3.0 | -5.2 | 1.1 | 0.699 | -17.0%
[6] COc1ccc(S(=O)(=O)N(C)C[C@H]2Oc3ccc(NS(=O)(=O)c4ccc(F)cc4)cc3C(=O)N([C@H](C)CO)C[C@@H]2C)cc1
→ 1.7 | -5.5 | 1.0 | 3.2 | 1.9 | . | .

# (list continues)
# Every second line gives: A1 inh | Beta2AR agonist | HNF4A DNA FP | LANA-H2B inh | UCH37 DUB inh | Ecoli growth | Vif A3G
[16] CC(C)Oc1ccc(-c2cc(=O)[nH]c(=O)[nH]2)cc1
→ -0.3 | -3.4 | 1.2 | -1.2 | 3.1 | 0.718 | -7.2%
[17] Cc1ccc(NS(=O)(=O)c2ccc3c(c2)NC(=O)C(C)C(=O)N3)cc1C (stereo not given)
→ 0.6 | 5.7 | -1.0 | 1.6 | 2.4 | 0.73 | .
[18] CCCCS(=O)(=O)N1CCCC(C(=O)Oc2ccccc2)C1 (stereo not given)
→ 0.3 | -8.7 | -1.9 | 14.9 | -1.3 | 0.704 | 0.2%
[19] O=C(NCCN1CCOCC1)c1ccc(NS(=O)(=O)c2cccc([N+](=O)[O-])c2)cc1
→ -0.5 | 4.2 | 3.1 | . | 3.6 | 0.663 | 0.0%
[20] CCN(CC(=O)Nc1c(F)cccc1F)C(=O)c1ccc(S(=O)(=O)N(CC)c2ccccc2)cc1
→ . | 4.9 | -2.0 | . | 2.7 | 0.668 | .
[21] O=C(Cc1ccc(Br)cc1)Nc1ccc(S(=O)(=O)Nc2ncccn2)cc1
→ -0.8 | 3.4 | -4.0 | 2.6 | 4.7 | 0.612 | -6.5%
[22] Cc1ccc(S(=O)(=O)N(C)C)cc1NC(=S)NCCc1ccccn1
→ 0.6 | 0.3 | -3.2 | 1.7 | 0.0 | 0.669 | .
[23] CC1CCN(S(=O)(=O)c2cc(C(=O)NC3(C)CCS(=O)(=O)C3)ccc2Br)CC1 (stereo not given)
→ -1.1 | 6.2 | -2.0 | 2.7 | -1.7 | 0.69 | -11.3%
[24] COc1ccc(S(=O)(=O)N2CCC(C(=O)NC3CCCCC3)CC2)cc1OC
→ -1.6 | -2.7 | 0.1 | 2.4 | 3.4 | 0.652 | -4.2%
[25] Cc1ccc(C(=O)N2N=C3c4ccccc4S(=O)(=O)N3[C@H]2N(C)C)cc1
→ 0.5 | 0.3 | -1.0 | -1.1 | -1.9 | 0.72 | 0.0%
[26] CCN(CC)S(=O)(=O)c1cc(C(=O)OCC(=O)NC2CCCc3ccccc32)ccc1C (stereo not given)
→ 1.2 | 2.2 | -1.0 | 0.0 | 3.2 | 0.702 | -1.7%
[27] CCOC(=O)/C(=N\Nc1ccc(Cl)cc1)Sc1nnc(-c2ccc(OC)cc2)n1C
→ 0.7 | 3.7 | 0.6 | 6.0 | . | . | .
[28] Cc1nc(C)c(CCNC(=O)c2ccccc2Br)s1
→ 0.6 | 9.8 | -1.6 | . | 1.9 | 0.665 | .
[29] O=C(Nc1ccccn1)c1ccc(Cl)c(S(=O)(=O)N2CCOCC2)c1
→ 0.3 | -7.6 | 2.0 | 6.2 | 0.8 | 0.737 | .
[30] CC(=O)NCCN=Cc1sc2ccccc2c1O
→ 0.5 | -4.1 | -2.6 | -1.9 | 2.6 | 0.73 | -2.2%

# Some entries already given, limited to HNF4A DNA FP and LANA-H2B inh.
nr | compound | HNF4A DNA FP | LANA-H2B inh
27 | CCOC(=O)/C(=N\Nc1ccc(Cl)cc1)Sc1nnc(-c2ccc(OC)cc2)n1C | 0.6 | 6.0
28 | Cc1nc(C)c(CCNC(=O)c2ccccc2Br)s1 | -1.6 | .

# The list continues:
# Every second line gives: A1 inh | Beta2AR agonist | HNF4A DNA FP | LANA-H2B inh | UCH37 DUB inh | Ecoli growth | Vif A3G
[31] O=C(Cc1ccc([N+](=O)[O-])cc1)NCc1cccnc1
→ -0.5 | 7.2 | -1.8 | -3.1 | 4.4 | 0.607 | -8.3%
[32] COC(=O)c1sc(NC(=O)Cc2cccs2)nc1C
→ -1.4 | -2.2 | -2.1 | 2.4 | 3.1 | 0.65 | 13.1%
[33] CC(=O)N1CC=C2C(C#N)=C(N)C(C#N)(C#N)C(C)C2C1 (stereo not given)
→ -0.7 | 17.3 | -2.6 | 2.6 | -13.4 | 0.711 | 5.0%
[34] CCc1nn(CC(=O)Nc2ccc(Br)c(C)c2)c(=N)s1
→ 1.6 | -1.7 | -2.5 | -0.3 | 4.6 | 0.627 | 17.0%
[35] CC1CCCCC1NC(=O)c1ccc(N2CCCC2=O)cc1 (stereo not given)
→ 0.0 | 1.2 | 5.1 | -1.1 | -1.5 | 0.643 | -1.4%
[36] O=C(CSc1nnc(Nc2ccccc2)s1)NCC1CCCO1 (stereo not given)
→ 1.4 | -7.7 | 0.1 | 0.2 | 1.9 | 0.665 | 0.8%
